# Compound activity (PubChem BioAssay)
# DUX4 txn inh = DUX4-mediated transcription inhibition; 293T-iDUX4 ZSCAN4-Gaussia luciferase reporter, 24 h; active compounds read low; activity change, negative = inhibition, % (no concentration beside the values); 37,000 compounds, 0.8% hits;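 active = -10% or lower and over 25 points stronger than a control reporter; inconclusive = -10% or lower with a smaller gap; inactive = above -10%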;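 note: 0% = median of neutral control wells and -100% = median of positive control wells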
# DUX4 txn inh difference = further read-out of DUX4 txn inh, marked with its call; Gaussia minus Italica difference, %; measured here: selective DUX4 reporter inhibition;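 worked out from the two reporters; negative = selective loss of the DUX4 reporter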
# DUX4 txn inh control = further read-out of DUX4 txn inh, marked with its call; activity change, negative = inhibition, %; measured here: Italica tet-on control reporter;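 0 = neutral control and -100 = positive control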
# Starred values were filed as active, the others as inactive; ? = inconclusive; . = no result given. These rows are one share of the data; rates above refer to the full screens.
SMILES,DUX4 txn inh,DUX4 txn inh difference,DUX4 txn inh control
N#Cc1cccc(-c2ccc([C@@H]3[C@H](CO)N4CCCCN(C(=O)Cc5cccnc5)C[C@@H]34)cc2)c1,12,22,-9.2
COC(=O)[C@@H]1[C@@H](CO)[C@@H]2Cn3c(ccc(-c4cccc(F)c4)c3=O)[C@H]1N2Cc1ccncc1,-2,-5,3.5
N#Cc1cccc(-c2ccc([C@H]3[C@H]4CN(C(=O)Cc5cccnc5)CCCCN4[C@H]3CO)cc2)c1,6,-4,11
O=C(Cc1ccccn1)N1CCCCN2[C@H](C1)[C@@H](c1ccc(Br)cc1)[C@@H]2CO,-3,-13,9.2
O=C(Cc1ccccn1)N1CCCCN2[C@@H](CO)[C@@H](c3ccc(-c4ccccc4)cc3)[C@@H]2C1,5,-2,6.8
CN1[C@H](CO)[C@H]2c3ccccc3NC[C@H]21,-2,-1,-0.9
COC(=O)[C@H]1[C@H](CO)[C@H]2Cn3c(ccc(-c4ccccc4F)c3=O)[C@@H]1N2CC1CCCC1,-7,-9,1.5
CN(C)CC#Cc1ccc([C@@H]2[C@@H](CO)N3CCCCN(C(=O)Cc4ccccn4)C[C@@H]23)cc1,34,31,3.9
CN(C)C(=O)[C@@H]1[C@@H](CO)[C@@H]2Cn3c(cccc3=O)[C@H]1N2CC1CC1,4,3,0.3
CCC(=O)N1[C@@H]2c3ccc(C4=CCCC4)c(=O)n3C[C@H]1[C@H](CO)[C@H]2C(=O)OC,0,2,-2.4
O=C(Cc1ccccc1)N1CCCCN2[C@H](CO)[C@H](c3ccc(C#CC4(O)CCCC4)cc3)[C@H]2C1,?,.,.
O=C(Cc1ccccc1)N1CCCCN2[C@@H](CO)[C@H](c3ccc(C#CC4(O)CCCC4)cc3)[C@@H]2C1,?,.,.
Cc1ccc(OC(=O)N(C)C[C@@H]2OCc3ccccc3-c3c(n(C)c4ccccc34)C(=O)N([C@H](C)CO)C[C@@H]2C)cc1,?,.,.
Cc1ccc(OC(=O)N(C)C[C@@H]2OCc3ccccc3-c3c(n(C)c4ccccc34)C(=O)N([C@@H](C)CO)C[C@@H]2C)cc1,?,.,.
O=C(Cc1ccccn1)N1CCCCN2[C@H](CO)[C@H](c3ccc(Br)cc3)[C@@H]2C1,11,8,3.2
O=C(Cc1ccncc1)N1CCCCN2[C@H](CO)[C@@H](c3ccc(-c4ccncc4)cc3)[C@H]2C1,16,-2,18
O=C(Cc1ccccn1)N1CCCCN2[C@H](CO)[C@@H](c3ccc(Br)cc3)[C@H]2C1,24,11,13
N#Cc1cccc(-c2ccc([C@H]3[C@@H](CO)N4CCCCN(C(=O)Cc5cccnc5)C[C@H]34)cc2)c1,-2,-3,0.5
O=C1CNC[C@@H]2[C@@H](c3ccc(Br)cc3)[C@@H](CO)N12,16,4,12
COC(=O)[C@H]1[C@H](CO)[C@H]2Cn3c(ccc(-c4cccc(C(=O)N(C)C)c4)c3=O)[C@@H]1N2C(=O)NC(C)C,-5,-9,4.3
COc1ccc(-c2ccc3n(c2=O)C[C@@H]2[C@@H](CO)[C@H](C(=O)O)[C@H]3N2C(=O)c2ccccc2F)cc1,0,0,-0.6
COc1cccc(-c2ccc([C@@H]3[C@H](CO)N4CCCCN(C(=O)Cc5ccncc5)C[C@@H]34)cc2)c1,-5,-6,1.2
COC(=O)[C@H]1[C@H](CO)[C@H]2Cn3c(ccc(-c4ccc(F)cc4)c3=O)[C@@H]1N2Cc1cccnc1,-3,-4,1.7
O=C(Cc1ccccc1)N1CCCCN2[C@H](C1)[C@H](c1ccc(C#CC3(O)CCCC3)cc1)[C@@H]2CO,-3,-12,8.3
COc1ccc(C#Cc2ccc([C@H]3[C@H]4CN(C(=O)Cc5ccccc5)CCCCN4[C@H]3CO)cc2)cc1,?,.,.
O=C1CNC[C@H]2[C@H](c3ccc(Br)cc3)[C@@H](CO)N12,11,7,4.5
C/C=C/c1ccc([C@@H]2[C@H]3CN(C(=O)Cc4ccncc4)CCCCN3[C@H]2CO)cc1,8,-6,14
Cc1ccccc1S(=O)(=O)N1[C@@H]2Cn3c(ccc(-c4cccnc4)c3=O)[C@H]1[C@@H](C(=O)O)[C@@H]2CO,-5,-7,1.2
Cc1ccc(OC(=O)N(C)C[C@H]2OCc3ccccc3-c3c(n(C)c4ccccc34)C(=O)N([C@@H](C)CO)C[C@H]2C)cc1,-6,-3,-2.7
C[C@H](CO)N1C[C@H](C)[C@H](CN(C)C(=O)Oc2cccc3ccccc23)OCc2cnnn2CCCC1=O,2,6,-4.1
O=C(O)[C@H]1[C@H](CO)[C@H]2Cn3c(ccc(-c4cccc(F)c4)c3=O)[C@@H]1N2CCc1ccccc1,2,-3,4.9
CC=Cc1ccc2n(c1=O)C[C@@H]1[C@@H](CO)[C@H](C(=O)N(C)C)N[C@H]21 (mixture of isomers),0,-5,5.1
C/C=C/c1ccc([C@@H]2[C@H](CO)N3CCCCN(C(=O)Cc4ccncc4)C[C@@H]23)cc1,32,17,15
N#Cc1cccc(-c2ccc([C@@H]3[C@@H](CO)N4CCCCN(C(=O)Cc5cccnc5)C[C@H]34)cc2)c1,1,7,-6.3
CCN1[C@@H]2Cn3c(ccc(-c4ccc(OC)cc4)c3=O)[C@H]1[C@@H](C(=O)OC)[C@@H]2CO,-1,1,-2.4
O=C(O)[C@@H]1[C@@H](CO)[C@@H]2Cn3c(ccc(-c4cccc(F)c4)c3=O)[C@H]1N2CCc1ccccc1,-9,-4,-4.7
COC(=O)[C@H]1[C@H](CO)[C@H]2Cn3c(ccc(/C=C/c4ccccc4)c3=O)[C@@H]1N2CC1CCCC1,?,.,.
COc1cccc(-c2ccc3n(c2=O)C[C@H]2[C@H](CO)[C@@H](C(=O)O)[C@@H]3N2Cc2ccccc2F)c1,0,-2,1.9
COC(=O)[C@@H]1N[C@@H]2c3ccc(C4=CCCC4)c(=O)n3C[C@@H]2[C@H]1CO,-2,-3,0.4
O=C(Cc1cccnc1)N1CCCCN2[C@H](C1)[C@@H](c1ccc(C#CC3(O)CCCC3)cc1)[C@@H]2CO,12,-2,14
Cc1ccc(OC(=O)N(C)C[C@@H]2OCc3ccccc3-c3c(n(C)c4ccccc34)C(=O)N([C@H](C)CO)C[C@H]2C)cc1,-7,-6,-1.0
O=C(Cc1ccccc1)N1CC2(C1)[C@H](c1ccccc1)[C@@H](CO)N2Cc1cccc(Cl)c1,?,.,.
CCCNC(=O)[C@H]1[C@H](CO)[C@H]2Cn3c(cccc3=O)[C@@H]1N2CCC,-4,-4,-0.3
COC(=O)[C@@H]1[C@@H](CO)[C@@H]2Cn3c(ccc(-c4cccc(OC)c4)c3=O)[C@H]1N2CC1CC1,1,6,-4.8
O=C(Cc1cccnc1)N1CCCCN2[C@H](CO)[C@@H](c3ccc(C#CC4CCCC4)cc3)[C@@H]2C1,-9,2,-11
O=C(Cc1ccncc1)N1CCCCN2[C@H](CO)[C@H](c3ccc(C#Cc4ccccc4F)cc3)[C@H]2C1,?,.,.
COC(=O)[C@@H]1[C@@H](CO)[C@@H]2Cn3c(ccc(C4=CCCCC4)c3=O)[C@H]1N2C(=O)Cc1ccccn1,-3,-9,5.7
C[C@H]1CN([C@@H](C)CO)C(=O)CCCn2nncc2CO[C@H]1CN(C)C(=O)Oc1cccc2ccccc12,-5,3,-8.6
O=C(Cc1cccnc1)N1CCCCN2[C@H](CO)[C@H](c3ccc(C#CC4(O)CCCC4)cc3)[C@@H]2C1,1,-4,4.6
N#Cc1cccc(-c2ccc([C@@H]3[C@H]4CN(C(=O)Cc5cccnc5)CCCCN4[C@H]3CO)cc2)c1,7,-14,21
COc1ccccc1CN1[C@H](CO)[C@@H](c2ccccc2)C12CN(C(=O)Cc1ccccc1)C2,?,.,.
COC(=O)[C@@H]1[C@@H](CO)[C@@H]2Cn3c(ccc(-c4ccccc4)c3=O)[C@H]1N2CC1CC1,-2,-1,-1.3
COC(=O)[C@@H]1[C@@H](CO)[C@@H]2Cn3c(ccc(-c4ccccc4)c3=O)[C@H]1N2C(=O)c1ccccc1F,8,7,0.7
O=C(Cc1ccccn1)N1CCCCN2[C@H](CO)[C@H](c3ccc(-c4ccccc4F)cc3)[C@H]2C1,-6,1,-7.5
O=C(Cc1ccccc1)N1CC2(C1)[C@H](c1ccccc1)[C@H](CO)N2Cc1cccc(Cl)c1,?,.,.
COC(=O)[C@@H]1[C@@H](CO)[C@@H]2Cn3c(ccc(C4=CCCCC4)c3=O)[C@H]1N2CC1CCCC1,-2,4,-5.4
O=C(Cc1ccccn1)N1CCCCN2[C@H](CO)[C@@H](c3ccc(-c4ccccc4)cc3)[C@@H]2C1,15,-3,18
COc1ccc(C#Cc2ccc([C@@H]3[C@@H](CO)N4CCCCN(C(=O)Cc5cccnc5)C[C@H]34)cc2)cc1,?,.,.
COc1cccc(-c2ccc3n(c2=O)C[C@@H]2[C@@H](CO)[C@H](C(=O)O)[C@H]3N2C(=O)c2cnccn2)c1,0,0,-0.4
C[C@H](CO)N1C[C@H](C)[C@H](CN(C)C(=O)Oc2cccc3ccccc23)OCc2cn(nn2)CCCC1=O,0,-2,2.1

# Arranged by formula weight (largest number first): 15 of the compounds above.
SMILES,DUX4 txn inh,DUX4 txn inh difference,DUX4 txn inh control
Cc1ccc(OC(=O)N(C)C[C@@H]2OCc3ccccc3-c3c(n(C)c4ccccc34)C(=O)N([C@H](C)CO)C[C@H]2C)cc1,-7,-6,-1.0
C[C@H]1CN([C@@H](C)CO)C(=O)CCCn2nncc2CO[C@H]1CN(C)C(=O)Oc1cccc2ccccc12,-5,3,-8.6
COc1ccc(C#Cc2ccc([C@@H]3[C@@H](CO)N4CCCCN(C(=O)Cc5cccnc5)C[C@H]34)cc2)cc1,?,.,.
O=C(Cc1ccncc1)N1CCCCN2[C@H](CO)[C@H](c3ccc(C#Cc4ccccc4F)cc3)[C@H]2C1,?,.,.
N#Cc1cccc(-c2ccc([C@@H]3[C@H]4CN(C(=O)Cc5cccnc5)CCCCN4[C@H]3CO)cc2)c1,7,-14,21
COC(=O)[C@@H]1[C@@H](CO)[C@@H]2Cn3c(ccc(C4=CCCCC4)c3=O)[C@H]1N2C(=O)Cc1ccccn1,-3,-9,5.7
COC(=O)[C@@H]1[C@@H](CO)[C@@H]2Cn3c(ccc(-c4ccccc4)c3=O)[C@H]1N2C(=O)c1ccccc1F,8,7,0.7
O=C(Cc1ccccn1)N1CCCCN2[C@H](CO)[C@H](c3ccc(-c4ccccc4F)cc3)[C@H]2C1,-6,1,-7.5
O=C(Cc1cccnc1)N1CCCCN2[C@H](CO)[C@@H](c3ccc(C#CC4CCCC4)cc3)[C@@H]2C1,-9,2,-11
O=C(Cc1ccccc1)N1CC2(C1)[C@H](c1ccccc1)[C@@H](CO)N2Cc1cccc(Cl)c1,?,.,.
COc1ccccc1CN1[C@H](CO)[C@@H](c2ccccc2)C12CN(C(=O)Cc1ccccc1)C2,?,.,.
O=C(Cc1ccccn1)N1CCCCN2[C@H](CO)[C@@H](c3ccc(-c4ccccc4)cc3)[C@@H]2C1,15,-3,18
COC(=O)[C@@H]1[C@@H](CO)[C@@H]2Cn3c(ccc(-c4cccc(OC)c4)c3=O)[C@H]1N2CC1CC1,1,6,-4.8
COC(=O)[C@@H]1[C@@H](CO)[C@@H]2Cn3c(ccc(-c4ccccc4)c3=O)[C@H]1N2CC1CC1,-2,-1,-1.3
CCCNC(=O)[C@H]1[C@H](CO)[C@H]2Cn3c(cccc3=O)[C@@H]1N2CCC,-4,-4,-0.3

# Ordered by count of non-hydrogen atoms (falling): 3 of the compounds above.
SMILES,DUX4 txn inh,DUX4 txn inh difference,DUX4 txn inh control
C[C@H](CO)N1C[C@H](C)[C@H](CN(C)C(=O)Oc2cccc3ccccc23)OCc2cn(nn2)CCCC1=O,0,-2,2.1
N#Cc1cccc(-c2ccc([C@@H]3[C@H]4CN(C(=O)Cc5cccnc5)CCCCN4[C@H]3CO)cc2)c1,7,-14,21
COC(=O)[C@@H]1[C@@H](CO)[C@@H]2Cn3c(ccc(-c4ccccc4)c3=O)[C@H]1N2C(=O)c1ccccc1F,8,7,0.7

# Remaining list, next part.
SMILES,DUX4 txn inh,DUX4 txn inh difference,DUX4 txn inh control
C[C@@H]1CN([C@@H](C)CO)C(=O)CCCn2cc(nn2)CO[C@@H]1CN(C)C(=O)Oc1cccc2ccccc12,0,5,-4.6
Cc1cccc(S(=O)(=O)N2[C@@H]3Cn4c(ccc(-c5ccc(F)cc5)c4=O)[C@H]2[C@@H](C(=O)O)[C@@H]3CO)c1,4,-5,9.3
COC(=O)[C@@H]1[C@@H](CO)[C@@H]2Cn3c(ccc(C4=CCCCC4)c3=O)[C@H]1N2CC1CC1,-2,2,-4.1
O=C(Cc1cccnc1)N1CCCCN2[C@H](CO)[C@H](c3ccc(C#CC4(O)CCCC4)cc3)[C@H]2C1,2,5,-3.0
C[C@H]1CN([C@@H](C)CO)C(=O)CCCn2cc(nn2)CO[C@H]1CN(C)C(=O)Oc1cccc2ccccc12,-3,-1,-1.6
COC(=O)[C@@H]1[C@@H](CO)[C@@H]2Cn3c(ccc(-c4ccncc4)c3=O)[C@H]1N2S(=O)(=O)c1ccccc1C,-1,1,-1.5
COC(=O)[C@H]1[C@H](CO)[C@H]2Cn3c(ccc(/C=C/c4ccccc4)c3=O)[C@@H]1N2C(=O)C1CCC1,6,9,-3.2
COC(=O)[C@H]1[C@H](CO)[C@H]2Cn3c(ccc(-c4cccc(OC)c4)c3=O)[C@@H]1N2CC1CC1,2,4,-2.5
COC(=O)[C@H]1[C@H](CO)[C@H]2Cn3c(ccc(-c4ccccc4)c3=O)[C@@H]1N2CC1CCCC1,-4,-1,-2.6
O=C(Cc1cccnc1)N1CCCCN2[C@@H](CO)[C@@H](c3ccc(C#CC4(O)CCCC4)cc3)[C@@H]2C1,10,5,4.5
O=C(Cc1ccccc1)N1CC2(C1)[C@H](c1ccccc1)[C@H](CO)N2Cc1cccc(F)c1,?,.,.
